Yeast UUG start = alters start codon recognition fidelity in yeast | S. cerevisiae UUG-firefly luciferase reporter, luminescence/redox ratio | activity score, % at 18.7 µM | actives 0.13% (n = 350,000) | AID 602363;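 active means replicate mean at a twofold rise or more, about +100% in these data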;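 further: firefly luciferase made from a UUG start codon reports start codon fidelity; reporter light over untreated wells divided by growth signal over untreated wells; some hits fall short of that in this replicate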
CSC inhib = blocks cancer stem cells. cancer stem cell-like cells viability, luminescence. AID 2717. inhibition, % at 7.5 µM. actives 1.1% (n = 300,000);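 active means mean at 75% or more and at least half the replicates too; inconclusive means mean and replicates disagree; tested in HMLE shEcad cells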;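 further: 0% = median of negative and 100% = median of positive control wells; the first replicate is given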
Rce1 inh = inhibitors of yeast Ras-converting enzyme; Q03530; yeast membranes, quenched prenylated peptide cleavage fluorescence; actives 0.27% (n = 290,000); calls only;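 active means fall in fluorescence gain of 50% or more versus controls, with final raw signal at or below 3038400; inconclusive means same 50% fall but final raw signal above 3038400; inactive means fall in fluorescence gain under 50%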;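 further: plate controls were neutral control wells for no effect and wells lacking membranes for full effect; tested at 10 µM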
Target sequence (Q03530 whole entry, looked up): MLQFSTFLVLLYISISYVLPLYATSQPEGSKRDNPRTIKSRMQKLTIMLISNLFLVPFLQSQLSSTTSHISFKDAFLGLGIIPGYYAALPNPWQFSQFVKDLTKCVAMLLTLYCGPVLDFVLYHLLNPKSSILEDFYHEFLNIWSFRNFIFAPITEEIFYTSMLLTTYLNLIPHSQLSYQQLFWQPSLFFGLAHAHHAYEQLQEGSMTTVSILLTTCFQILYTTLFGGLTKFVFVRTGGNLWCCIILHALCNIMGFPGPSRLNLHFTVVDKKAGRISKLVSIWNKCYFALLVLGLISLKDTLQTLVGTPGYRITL
eIF4H inh = inhibitors of RNA binding by human eIF4H; Q15056; eIF4H fluorescence polarization binding assay; inhibition, % at 35 µM; actives 0.94% (n = 290,000); AID 2012;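 active means 50% or more with normal probe brightness, or confirmed in later tests; inconclusive means above 50% with abnormal brightness, or retests that disagree; inactive means below 50% or failed in later tests; about a fifth of its hits are not listed in these tables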;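 further: calls also rest on retests at 20 µM and on dose response follow-up; 0% = protein and probe with vehicle and 100% = probe without protein; strong numbers were not always called active; many hits fall short of the cut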
PABP polyA inh = blocks human PABP binding to poly(A) RNA | P11940 | actives 1% (n = 290,000) | inhibition, % at 35 µM | fluorescence polarization;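 active means 50% or more with normal probe brightness, or confirmed in later tests; inconclusive means above 50% with abnormal brightness, or retests that disagree; inactive means below 50% or failed in later tests; about a fifth of its hits are not listed in these tables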;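 further: calls also rest on retests at 20 µM and on dose response follow-up; controls were probe without protein and protein plus probe with vehicle; some compounds called inactive have numbers as strong as hits; many hits fall short of the cut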
HIV Env fusion = inhibitors of HIV Env-mediated cell fusion | HeLa-JRFL Env/CEM21 cell fusion, luciferase | inhibition, % at 12.3 µM | actives 1.1% (n = 360,000) | AID 651610;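 active means mean replicate inhibition score of at least 50 and every replicate individually at or above 50; inconclusive means only one of the two criteria met; inactive means mean below 50 and not all replicates reaching 50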;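 further: 0% = plate neutral controls and 100% = maraviroc near 300 nM; one replicate is shown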
MT1-MMP act inh = MT1-MMP (human) activation inhibition; P50281; HT1080 RFP-PRO-GFP cells, GFP/RFP ratio fluorescence, overnight; percent of plate control window, DMSO zero; GFP/RFP ratio change, % at 20 µM; actives 0.061% (n = 360,000);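 active means GFP/RFP ratio change of at least 30% with cell ATP level not reduced by more than half and red fluorescence within 50% of control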; further: strong numbers were not always called active
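Assay system: HT1080 RFP-PRO-GFP cells. Benchmarks: DMSO vehicle wells and RFP-L50D-GFP reporter cell wells. Times: overnight cell settling, then overnight compound exposure, 37 °C, 5% CO2. Compound: 20 µM single dose, 1% DMSO. Read-out basis: GFP/RFP fluorescence ratio.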
MT1-MMP act inh RFP = second read-out of MT1-MMP act inh, no call of its own (marks repeat the call); RFP signal change, %; measured here: RFP expression control read;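 0 = vehicle wells; hits needed this value within 50% of zero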
* = called active by the depositor; i = inactive; ? = inconclusive; . = no result given; & = joins results of further samples.

SMILES	Yeast UUG start	CSC inhib	Rce1 inh	eIF4H inh	PABP polyA inh	HIV Env fusion	MT1-MMP act inh	MT1-MMP act inh RFP
CCOC(=O)c1nc(C)n(-c2ccc(Cl)cc2)n1	-21.1	-22.9	i	-2.2	-2.8	0.2	5.5	5.8
CCOC(=O)C1(CCOC)CCCCC1=O (stereo not given)	-14.4	.	.	.	.	-3.1	0.1	4.6
CCOc1ccc(NC(=O)CC2C(=O)N(c3ccccc3)C(=O)N2CCOC)cc1 (stereo not given)	-3.7	-0.3	i	6.2	-2.2	-3.2	1.7	8.4
Nc1cccc(CN2CCCC2)c1	.	-3.8	.	-4.2	1.4	-10.9	-5.5	-1.1
COC(=O)c1ccc(/C=C/C(=O)OCC(=O)Nc2ncc(Cl)cc2Cl)cc1	-11.6	-20.0	.	.	.	9.9	-4.7	4.0
CC(C)(C)c1ccc(Nc2n[nH]c3ccccc23)cc1	-29.9	.	.	.	.	-329.3	-2.5	-11.3
CCOC(=O)/C(C#N)=C/c1c(Oc2cccc(C)c2)nc2ccccn2c1=O	.	-1.7	i	4.4	2.0	-8.7	-2.0	-2.5
CCOC(=O)N1CCN(C(=O)CSc2nc(=O)n3ccc(C)cc3n2)CC1	-8.0	-1.2	i	.	.	-8.3	-0.8	2.2
CC1Cc2c([nH]c3ccccc23)C2c3ccccc3CN12 (stereo not given)	-3.9	-1.0	i	15.2	0.1	53.1	-9.1	2.4
COc1cc(/C=C2\C(=N)N3N=C(N4CCOCC4)SC3=NC2=O)ccc1OC(=O)c1ccccc1	-9.1	-2.4	i	11.7	2.5	-14.1	2.3	1.3
Cn1cc(C(=O)OCC2CCN(CCNS(C)(=O)=O)CC2)c2ccccc21	13.3	-5.4	i	.	.	-22.5	1.5	6.0
C/C(=N\NC(=O)c1nn(C)c(C)c1Br)c1cccc(NC(=O)c2ccoc2C)c1	.	0.0	i	1.4	9.4	-23.8	4.8	2.9
COc1ccc(NC(=S)N2c3ccccc3CC2C)cc1OC (stereo not given)	.	-10.5	i	6.8	22.0	6.9	4.8	2.6
CC(=O)c1ccc(S(=O)(=O)N2CCC3(CC2)CC(=O)c2ccccc2O3)cc1	-10.7	-1.1	i	.	.	1.7	-7.8	-7.5
COCCCn1c(SCC(=O)NC(C)(C)C)nnc1-c1cccs1	4.4	4.5	i	5.3	8.6	3.3	8.0	-1.3
CC(C)(C)NC(=O)COC(=O)c1ccccc1OCC(=O)Nc1ccc(Br)cc1	.	8.5	i	-1.6	6.1	-18.4	0.5	-1.1
COc1cc(OC)c2c(c1)OC(=O)CC2c1ccc2c(c1)OCO2 (stereo not given)	-11.3	.	.	.	.	5.3	4.2	2.0
N#CCCn1c(=S)[nH]c2ccccc21	-17.8	-9.4	.	-10.0	-4.9	-291.8	0.1	1.3
COc1ccc(CCN(CC(=O)NC2CCCC2)C(=O)Cn2nnc(-c3ccc(C)o3)n2)cc1OC	.	.	i	-13.1	2.3	9.8	-1.3	-2.0
Cn1c(CCNC(=O)c2ccco2)nc2cc(NC(=O)NC3CCCCC3)ccc21	-6.0	5.9	i	-3.1	-9.2	-35.7	-1.1	-2.5
Cc1cc(C)cc(OCC(=O)N/N=C/c2ccc([N+](=O)[O-])o2)c1	.	5.2	i	15.2	32.7	-20.7	-8.1	-10.9
COCCNC(=O)c1cc(-c2ccccc2)nn1CC1CC(c2cccc([N+](=O)[O-])c2)=NO1 (stereo not given)	2.9	-36.9	i	.	.	10.7	-0.3	3.2
COc1ccc(-c2cc3c(=O)n(CC(=O)Nc4ccc(Cl)cc4)ncn3n2)cc1	.	-7.7	i	-9.7	0.0	5.3	0.7	3.2
CCOC(=O)c1cc(NC(=O)N(CC)CC)c(C)nc1C	-9.0	-5.1	i	8.9	0.2	-3.1	-7.0	-2.7
COCCNc1cc(C)c(C#N)c2nc3ccccc3n12	-9.2	1.3	i	25.6	25.1	i	3.9	-2.7
(more compounds)
SMILES	Yeast UUG start	CSC inhib	Rce1 inh	eIF4H inh	PABP polyA inh	HIV Env fusion	MT1-MMP act inh	MT1-MMP act inh RFP
CCN(CC)CCNCC(O)(c1ccc(Cl)cc1)c1ccc(Cl)cc1	.	3.2	i	0.7	7.6	-6.3	2.9	-4.9
CCOC(=O)/C(C#N)=C/c1cc2ccccc2nc1N1CCCCC1	.	-4.3	i	?	?	7.1	-0.9	-1.9
O=c1nc2ccc(Cl)cn2c2ccc(S(=O)(=O)N3CCOCC3)cc12	-10.4	-4.8	i	1.6	7.3	-5.0	-0.9	2.9
COCCOC(=O)c1c(C)oc2ccc(NS(=O)(=O)c3ccccc3)cc12	-5.4	-6.0	i	-1.3	-2.8	.	4.9	-7.2
C=C(C)c1cccc(C(C)(C)NC(=O)NC2CC(C)(C)NC(C)(C)C2)c1	.	2.4	i	-11.3	16.1	-29.7	1.8	4.0
O=C(Nc1ccc(Cl)c(C(F)(F)F)c1)NC1CC2CCCC(C1)N2C1CC1 (stereo not given)	-0.7	51.8	.	.	.	.	-3.9	-7.1
Cc1ccc2c(c1)N(Cc1ccccc1)C(=O)C(C)S2 (stereo not given)	-10.5	.	.	.	.	-0.9	-2.9	4.4
COc1cc(/C=N\Nc2nncn2N)ccc1OC(C)=O	-18.7	3.9	i	-3.4	1.1	-9.3	0.7	-0.7
O=C(CN1CCN(c2ccccc2)CC1)N1CCc2[nH]c3ccccc3c2C1	-10.0	-1.4	.	13.0	7.7	-62.7	-5.5	3.6
CN(c1cccc(NC(=O)Nc2ccc(Cl)cc2)c1)S(C)(=O)=O	.	-2.2	i	-3.5	-4.8	-14.1	11.7	-9.8
CC(C)C(=O)Nc1cccc(NC(=O)c2ccc([N+](=O)[O-])cc2Cl)c1	-1.1	-14.4	i	-7.2	15.6	6.6	-0.8	2.0
CCCc1cc(-c2nc(N)ncc2-c2csc(C)n2)c(O)cc1OC	.	-4.9	.	3.2	-1.2	-18.8	5.8	-10.0
CCN(CC)C(=O)CSc1nnc(-c2cnccn2)n1-c1ccccc1	0.6	-5.2	i	-3.5	-13.8	13.1	7.6	5.6
O=C1CSc2ccc(S(=O)(=O)NCc3ccccc3Cl)cc2N1	-8.9	-33.8	i	-4.8	2.7	0.1	1.3	6.1
Cc1ccccc1NS(=O)(=O)c1ccc2c(c1)NC(=O)CCS2	-5.2	-0.9	i	-1.0	0.7	1.5	-3.5	2.7
CCOC(=O)N1CCN(C(=O)/C(=C/c2ccc(OC)c(OC)c2)NC(=O)c2ccccc2)CC1	.	.	i	-6.7	0.4	-5.6	6.7	4.9
COc1ccccc1-c1noc(CSc2nc(C)cc(=O)[nH]2)n1	-3.7	-7.4	i	-4.2	56.6*	-1.3	-0.9	3.1
O=C(Nc1ccccc1F)Nc1ccccc1OC(F)F	.	-3.5	i	-0.6	-16.3	-16.9	-1.0	-1.9
Cc1ccc(S(=O)(=O)CCC(=O)OCC(=O)Nc2cc(S(=O)(=O)N3CCOCC3)ccc2C)cc1	.	-2.7	i	.	.	-13.1	2.7	3.1
CCc1nc(-c2ccccc2O)n(-c2ccccc2)n1	-12.4	-0.3	i	-1.2	-0.6	-2.1	1.9	2.9
CCCCC1CC2=C(C(=O)OC(C)(C)O2)C(c2ccc(F)cc2)O1 (stereo not given)	-14.3	.	.	.	.	6.6	2.4	-3.1
COc1ccc(C2(c3ccc(OC)cc3)NC(=O)N(CC(=O)Nc3ccc(OC(F)F)cc3)C2=O)cc1	-27.2	24.2	i	-10.2	-5.4	8.7	-0.9	-7.0
Cc1cc(OCCCC(=O)NCCc2ccccn2)ccc1Cl	-9.4	-16.7	i	4.4	2.9	-8.8	2.2	4.0
Cc1ccc(/C(O)=C2\C(=O)C(=O)N(C)C2c2ccccc2[N+](=O)[O-])cc1 (stereo not given)	0.1	-21.6	i	-12.4	-1.8	-8.0	-1.2	3.7
CC1=CCC2C(=O)N(c3ccc(N4CCOCC4)cc3)C(=O)C2C1 (stereo not given)	-2.0	-16.2	i	0.9	-2.2	13.2	1.5	2.7
(list continues)
SMILES	Yeast UUG start	CSC inhib	Rce1 inh	eIF4H inh	PABP polyA inh	HIV Env fusion	MT1-MMP act inh	MT1-MMP act inh RFP
COc1ccc(-c2csc(=Nc3ccccc3)n2CCO)cc1	0.6	8.0	i	-5.8	-3.0	.	-7.2	-23.5
Cc1ccc(C)c(C(=O)COC(=O)C(C)N2C(=O)C3C4CCC(C4)C3C2=O)c1 (stereo not given)	1.4	18.9	i	-6.7	-3.0	-45.0	0.5	0.2
CCOC(=O)CNS(=O)(=O)c1ccc(S(=O)(=O)N2CCCC2)cc1	.	-8.3	i	-3.0	-5.7	.	0.5	6.4
COCCN1C[C@@H](CO)O[C@@H](n2cnc3c(NCc4ccncc4)ncnc32)C1	-18.4	.	.	.	.	8.5	2.5	7.6
O=C(CS(=O)(=O)c1cn(Cc2ccc(Cl)cc2)c2ccccc12)N1CCCC1	-8.1	-9.0	i	2.9	-4.3	-0.7	2.5	-1.9
Cc1noc(C)c1S(=O)(=O)Nc1ccc2c(c1)C(=O)N([C@@H](C)CO)C[C@@H](C)[C@@H](CN(C)CC1CCCCC1)OCCCC[C@@H](C)O2	8.7&11.2	.	.	.	.	-40.9	-2.2	-2.2
CCOc1cc(CNc2cccc3ccccc23)cc(Br)c1OCC(=O)NC(C)(C)C	.	24.8	i	2.0	3.6	.	-14.2	-12.1
Cc1ccc(CN(C)C(=O)c2cccc(S(=O)(=O)N3CCCC3)c2)cc1	-9.7	-18.2	.	.	.	21.8	-2.6	-3.7
S=C(NCC1CCCO1)Nc1ccc(Cl)cc1 (stereo not given)	.	5.1	i	7.1	19.8	17.2	4.3	3.4
CCOC(=O)C1=CCN(S(=O)(=O)c2ccccc2Br)C1c1ccc(C)cc1 (stereo not given)	-1.5	.	.	.	.	27.6	5.1	-1.1
COc1ccc(C(=O)c2c(C)c(CCC#N)n3ccccc23)c(OC)c1	-1.7	-20.7	i	5.2	-1.7	10.1	-0.5	-0.7
COc1ccc(CN(C)CC(=O)Nc2ccccc2-c2ccccc2)c(OC)c1	.	23.5	i	-6.2	1.7	22.5	-6.8	-6.7
CCCCCCCCC(=O)N/N=C(\C)c1ccco1	1.2	10.0	i	-4.7	1.2	.	-1.5	0.2
Clc1ccc(/C=N/N2CCN(Cc3ccccc3)CC2)cc1	-17.1	0.2	i	-0.4	-12.5	6.3	2.6	-1.6
COc1cccc(NC(=S)NC(C)c2ccc(OC)c(OC)c2)c1 (stereo not given)	.	-7.3	i	-1.7	2.3	-8.2	4.2	6.0
COc1ccc(CNC(=O)Nc2ccc(C)cc2)cc1	-1.5	-1.7	i	-3.0	3.5	.	-1.4	-0.8
Cc1ccc2[nH]c3c(N4CCc5ccccc5C4)ncnc3c2c1	-7.6	-7.8	i	-3.8	1.1	81.3*	7.9	-18.0
O=C(COC(=O)c1cnccn1)NC1CCCc2ccccc21 (stereo not given)	-0.6	1.6	.	.	.	0.4	-0.4	6.5
COc1cc(NC(=O)C(C)N2CCN(C(=O)C3CC3)CC2)cc(OC)c1 (stereo not given)	-13.4	-7.7	.	.	.	.	2.4	2.8

Some entries already given, limited to MT1-MMP act inh and eIF4H inh:
| molecule | MT1-MMP act inh | eIF4H inh |
| --- | --- | --- |
| CCOc1cc(CNc2cccc3ccccc23)cc(Br)c1OCC(=O)NC(C)(C)C | -14.2 | 2.0 |
| CCOC(=O)C1=CCN(S(=O)(=O)c2ccccc2Br)C1c1ccc(C)cc1 (stereo not given) | 5.1 | . |
| CCOC(=O)CNS(=O)(=O)c1ccc(S(=O)(=O)N2CCCC2)cc1 | 0.5 | -3.0 |
